StopGo FLuc: Primary qHTS Assay for Foot and Mouth Disease Virus Antivirals against NCGC Sytravon and CBC Compound Libraries: Firefly Luciferase Signal. HEK cells with a luciferase reporter of 2A StopGo recoding. Potency, µM (titrated, usually from 57.5 µM), for the others: at the highest dose signal change, negative = less light. actives 0.23% (n = 120,000). AID 1745856, 2022; active = well fitted falling curve with a large enough effect; inconclusive = small, poorly fitted or top-dose-only effect; inactive = no such curve, though single readings can be large or run the other way; also: nearly all actives have a fitted effect of over 60% in size; overnight with compound
2A Renilla: Primary qHTS Assay for Foot and Mouth Disease Virus Antivirals against NCGC Sytravon and CBC Compound Libraries: Renilla Luciferase Signal; HEK cells with a luciferase reporter of 2A StopGo recoding; Potency, µM (doses to about 57.5 µM), inactives show top-dose signal change, negative = less light; actives 0.32% (n = 120,000); AID 1745857, 2022; active means well fitted falling curve with a large enough effect; inconclusive means small, poorly fitted or top-dose-only effect; inactive means no such curve, though single readings can be large or run the other way; also: nearly all actives have a fitted effect of over 55% in size; overnight with compound
An asterisk follows results filed as active; u = inconclusive; & = joins results of further samples; [ ] = another dose, or the depositor's remark. % is scaled to controls: 0 for no effect and ±100 for the full control effect; potency is read from the fitted curve at half-maximal effect.

SMILES | StopGo FLuc | 2A Renilla
Cc1oc(-c2cccs2)nc1CC(=O)N(Cc1ccc(C(=O)NC2CC2)cc1)C1CC1 | -6% | 4%
COc1ccc(NC(=O)/C=C/c2ccc(C(C)(C)C)cc2)cc1Cl | u | u
COC(=O)C1=CN(Cc2ccc(F)cc2)C=C(C(=O)OC)C1c1ccc(O)cc1 | -2% | 12%
CCCN(C)c1ccc(/C=N/NC(=S)Nc2ccc(C)cc2)cc1 | 0% | 19%
CCCC(=O)Nc1cc(C(=O)NCc2ccccc2)ccc1S(=O)(=O)c1ccc(Cl)cc1 | 5% | 22%
CCOC(=O)/C(C#N)=C\c1cc(Cl)c(OC)c(OC)c1 | 12% | 13%
COc1ccc(CCNCc2ccc3c(c2)n(C)c(=O)n3C)cc1OC | 8% | -11%
CCOc1ccc(NC(=O)CSc2ncc3c(n2)-c2ccc(Cl)cc2N(Cc2ccccc2)S3(=O)=O)cc1 | -6% | -8%
COc1nc2ccccc2nc1C(C#N)C(=O)NC1CCCCC1 (centres undefined) | 101%[activator] | 10%
CCNC(=O)c1ccc2nc(Cc3ccccc3)oc2c1 | 102%[activator] | -4%
CC(C)Cc1nnc(NC(=O)Nc2ccc(Cl)cc2)s1 | 20% | 0%
CCC(C)n1c(SCC(=O)Nc2cc(C)no2)nnc1-c1ccccc1 (centres undefined) | -11% | -9%
COc1ccc(-c2c3c(=O)n(C)c(=O)n(C)c3c3c(-c4ccccc4)nc4ccccc4n23)cc1 | -13% | 0%
Cc1ccc(N2CCN(S(=O)(=O)c3ccc4[nH]c5c(c4c3)CCCCC5)CC2)c(C)c1 | 3% | 16%
CCC(C)(C)NC(=O)Cn1c(=O)ccc2cc(S(=O)(=O)N3CCC(C)CC3)ccc21 | -6% | 14%

The last 6 entries of the section before come first, to join the parts.
SMILES | StopGo FLuc | 2A Renilla
CCNC(=O)c1ccc2nc(Cc3ccccc3)oc2c1 | 102%[activator] | -4%
CC(C)Cc1nnc(NC(=O)Nc2ccc(Cl)cc2)s1 | 20% | 0%
CCC(C)n1c(SCC(=O)Nc2cc(C)no2)nnc1-c1ccccc1 (centres undefined) | -11% | -9%
COc1ccc(-c2c3c(=O)n(C)c(=O)n(C)c3c3c(-c4ccccc4)nc4ccccc4n23)cc1 | -13% | 0%
Cc1ccc(N2CCN(S(=O)(=O)c3ccc4[nH]c5c(c4c3)CCCCC5)CC2)c(C)c1 | 3% | 16%
CCC(C)(C)NC(=O)Cn1c(=O)ccc2cc(S(=O)(=O)N3CCC(C)CC3)ccc21 | -6% | 14%
Cc1cc2cc(CNC(=S)Nc3cccc(Br)c3)ccc2[nH]1 | 9% | 243%[activator]
CC(=O)CC1(C(C#N)C#N)C(=O)Nc2ccccc21 (centres undefined) | 10% | -17%
CCOC(=O)N1CCN(c2cc(C(=O)O)c3cc(NC(=O)C4CC4)ccc3n2)CC1 | -1% | -3%
O=C(CSCc1ccc(F)cc1)N1CCc2c([nH]c3ccccc23)C1c1ccc(F)cc1 (centres undefined) | u | u
COc1ccc(CNC(=O)Nc2ccc(Cl)cc2C)cn1 | 14% | -9%
CCOC(=O)c1[nH]c(C)c(CCC(=O)Nc2cccc(SC)c2)c1C | -2% | 18%
CCS(=O)(=O)N1CCC2(CC1)OC(=O)C(C)=C2C(=O)NCc1ccc(OC)c(OC)c1 | -15% | -10%
COc1cc(CNC(=O)c2ccc3c(c2)NC(=O)CCS3)ccc1OCc1ccccc1 | 0% | 1%
CCCCNC(=O)CS(=O)Cc1nc(-c2ccc(Cl)cc2)oc1C (centres undefined) | 4% | 122%[activator]
CCn1ccc2cc(S(=O)(=O)N3CCC(C(=O)NCc4ccc(F)cc4)CC3)ccc21 | -18% | 7%
CCc1ccc2oc(C(=O)N3CCN(C)CC3)cc(=O)c2c1 | 0% | 1%
CCc1nnc(NC(=O)c2cc(-c3ccc(C)o3)nc3ccccc23)s1 | 90%[activator] | 0%
CCOC(=O)C1CCN(S(=O)(=O)c2cc(-c3cc(C)no3)ccc2OC)CC1 | -11% | 0%
CC(=O)Nc1ccc(-n2c(CCC(=O)O)ccc2-c2ccc(C)cc2)cc1 | 3% | -16%
S=C1NC(C23CC4CC(CC(C4)C2)C3)=CC(c2ccccc2Cl)N1 (centres undefined) | -6% | 93%[activator]
COc1ccc(NC(=O)CSC2=C(C#N)C(c3ccc(Cl)cc3)C(C(C)=O)=C(C)N2)cc1 (centres undefined) | 28% | 48%
O=C(Nc1cccc(F)c1)c1oc2ccccc2c1NC(=O)C12CC3CC(CC(C3)C1)C2 | 12% | -15%
Cc1ccc(NC(=O)C2CCN(S(=O)(=O)c3cccc4nsnc34)CC2)cc1 | 8% | 7%
O=C1C2=C(Nc3ccccc3SC2c2ccccc2)c2ccccc21 (centres undefined) | u | -38%
COC(=O)c1ccc2c(=O)[nH]c(CSc3nnc(-c4cccnc4)n3Cc3ccccc3)nc2c1 | -7% | 7%
Cc1cc(C)n2c(Nc3ccc4c(c3)OCCO4)c(-c3ccccc3)nc2n1 | 50%[activator] | 66%[activator]
COc1ccc2c(c1OC)CN1CCc3cc4c(cc3C1C2)OCO4 (centres undefined) | -5%[11.5 µM] | -20%
COc1ccc(NC(=O)c2cc3c(C)nn(CC(C)C)c3s2)cc1S(=O)(=O)N1CCOCC1 | -10% | 5%
COc1ccc2cc(C(=O)c3ccccc3)c(=O)oc2c1 | 120%[activator] | 22%
Cc1ccc2nc(N(Cc3cccnc3)C(=O)CCc3ccccc3)sc2c1 | -11% | 15%
Cc1cc(C(=O)OCC(=O)NCc2ccc(F)cc2)c2ccccc2n1 | -1% | -2%
O=C(Nc1ccc(S(=O)(=O)N2CCOCC2)cc1)C1CC(=O)N(CCc2ccc(F)cc2)C1 (centres undefined) | 4% | 45%[activator]
COc1ccc(NC(=O)COC(=O)COc2cccc3c2OC(C)(C)C3)cc1 | 14% | 4%
Cn1cc(S(=O)(=O)N2CCCCCC2)cc1C(=O)N1CCN(c2cccc(Cl)c2)CC1 | -15% | -16%
CCCOc1ccccc1CNC1CC1 | -12% | -8%
Cc1oc(=O)oc1COC(=O)[C@@H]1N2C(=O)[C@@H](NC(=O)[C@H](N)c3ccccc3)[C@H]2SC1(C)C | -4%[11.5 µM] | -4%
COc1ccccc1/C=C/C=C1\Oc2cc(OS(C)(=O)=O)ccc2C1=O | u | 0%
N#CC1=C(SCC(=O)Nc2ccc(Br)cc2)NC(=O)CC1c1ccc2c(c1)OCO2 (centres undefined) | u | -23%
O=C(Cc1c(F)cccc1Cl)OCC(=O)C12CC3CC(CC(C3)C1)C2 | -4% | 18%
CCOC(=O)c1oc2ccccc2c1COC(=O)Cn1cc(C(F)(F)F)ccc1=O | 41%[activator] | 0%[1.06 µM]
Cc1ccc(C)c(N2CCN(C(=O)Cn3c(=O)c4cccn4c4ccc(F)cc43)CC2)c1 | u | -5%
C[C@@H]1CN(c2c(F)c(N)c3c(=O)c(C(=O)O)cn(C4CC4)c3c2F)C[C@H](C)N1 | -20%[27 µM] | -13%[23.8 µM]
Cc1ccc(-n2ncc3c(NC4CCCCC4)ncnc32)cc1C | 28%&141% | 12%&-8%
O=C(/C(=C\c1ccccc1Cl)c1nc2ccccc2o1)c1ccccc1 | 107%[activator] | -2%
O=C(CCOc1cccc(Cl)c1)N1CCC(c2nnc3n2CCC3)CC1 | 8% | -9%
CCc1ccc(-n2c(=O)c3cccnc3n2CC(=O)Nc2cc(OC)ccc2OC)cc1 | -21% | 5%
CCCc1nnc(NC(=O)c2ccc3ccccc3n2)s1 | 59%[activator] | 8%
CCOC(=O)CC(NC(=O)CCc1c(C)nc2c(c(C)nn2-c2ccc(C)c(C)c2)c1C)c1ccc(C)cc1 (centres undefined) | 3% | -12%
CC(C)CN1CCN(CCN(C)Cc2ccccc2)CC1 | -3% | 6%
COc1ccc(CCNC(=O)C(=O)NCC(c2ccco2)S(=O)(=O)c2ccccc2)cc1OC (centres undefined) | u | -7%
Cc1c(CC(=O)NCCc2ccccc2)c(=O)oc2c(C)c3occ(C(C)(C)C)c3cc12 | -21% | 6%
COc1ccc(Nc2nc3ccccc3nc2NS(=O)(=O)c2cc(C)ccc2C)cc1OC | 21% | 23%
CC1CCC2(CCc3cc4c5c(c(=O)oc4cc3O2)CCCC5)CC1 (centres undefined) | 33%[activator] | 11%
CCOC(=O)c1c(C)oc2nc(C)nc(NCC3CCN(Cc4cc(C)ccc4C)CC3)c12 | -13% | -19%
Cc1ccc(-c2nn(Cc3ccccc3)cc2C(=O)N2CCN(CCO)CC2)cc1C | 11% | 51%[activator]
Cc1ccc(NC(=O)N2CCC(CN3CCCCCC3)CC2)c(Cl)c1 | -1% | -10%
COc1cccc(/C=C2\Oc3cc(OS(=O)(=O)c4ccccc4)ccc3C2=O)c1OC | -18% | -23%
Cc1ccc(OCC(=O)NCC2(N(C)C)CCCCC2)cc1C | -9% | -15%
Cc1cc(C)c(OCC(=O)Nc2cccc(NC(=O)c3ccco3)c2)c(Br)c1 | 0% | 9%
Cc1ccc(/C=N/Nc2nc(Nc3ccccc3)nc(N3CCCCC3)n2)c(C)c1 | 78%[activator] | -3%
CCc1ccc(C(=O)CSc2nnc(-c3ccc(Cl)cc3)n2CCOC)cc1 | 11% | 1%[1.06 µM]
O=C(Nc1cccc(O)c1)c1cc(-c2ccncc2)nc2ccccc12 | -3% | -9%
O=C(NNC(=O)c1ccccc1OCCOc1ccccc1)c1ccc(F)cc1F | -7% | -3%
Cc1ccc(CCC(=O)Nc2cccc3cccnc23)c(C)c1 | 7% | -1%
CCNC(=O)CN1CCCN(C(=O)CCCc2c[nH]c3ccccc23)CC1 | 27% | -8%
(continued)
SMILES | StopGo FLuc | 2A Renilla
COCCNC(=O)CCc1c(C)n(C)c2cc(-c3cc(OC)c(OC)c(OC)c3)nn2c1=O | -12% | -10%
COc1cccc2cc(-c3nn4c(C(C)C)nnc4s3)oc12 | 116%[activator] | -6%
CC(O)c1ccccc1[N+](=O)[O-] (centres undefined) | 50%[activator] | 20%
Cc1ccc(C)c(NC(=O)c2ccc3c(c2)CCN3S(=O)(=O)c2ccccc2)c1 | 10% | 108%[activator]
Cc1ccc(OCc2nnc(SCC(=O)Nc3ccccc3C(C)C)o2)cc1 | -10% | -2%
CCCN(CCC)C(=O)c1nn(Cc2ccccc2)c(=O)c2ccccc12 | 5% | 44%[activator]
COCCn1ccc2c(OCC(=O)NCc3ccc(F)cc3)cccc2c1=O | 4% | 6%
CC(C)(C)OC(=O)COc1ccc2c(=O)c(-c3ccccc3)c(C(F)(F)F)oc2c1 | 13% | 1%
COc1ccc(-c2nnc(SC(C)C(=O)NC3CC3)o2)cc1 (centres undefined) | 110%[activator] | 8%
CCCCCCOc1ccc(C(=O)CCC(=O)O)cc1 | -20% | -5%
Cc1ccc(CNC(=O)CN2N=C(c3ccccc3)CCC2=O)cc1 | -17% | -17%
CCCC(=O)NCC(c1ccc2c(c1)OCO2)N1CCN(c2ccc(F)cc2)CC1 (centres undefined) | -10% | -11%
COc1ccccc1NC(=O)COc1cc(O)c2c(=O)cc(-c3ccccc3)oc2c1 | -7% | -8%
Cc1cc(C)n(C(=O)c2ccc(C)c(S(=O)(=O)N3CCCCCC3)c2)n1 | 2% | 2%
O=C(c1ccccc1)N1CCN(Cc2cccc3cccnc23)CC1 | 32%[activator] | 9%

3 structures from above, arranged by length of the SMILES, high to low:
SMILES | StopGo FLuc | 2A Renilla
CCC(C)(C)NC(=O)Cn1c(=O)ccc2cc(S(=O)(=O)N3CCC(C)CC3)ccc21 | -6% | 14%
CCCC(=O)Nc1cc(C(=O)NCc2ccccc2)ccc1S(=O)(=O)c1ccc(Cl)cc1 | 5% | 22%
O=C(c1ccccc1)N1CCN(Cc2cccc3cccnc23)CC1 | 32%[activator] | 9%

Further entries.
SMILES | StopGo FLuc | 2A Renilla
CCN(CC)CCNC(=O)Cn1c(C)cc2ccccc21 | 6% | -5%
CCc1ccc(CCC(=O)Nc2cccnc2)cc1 | 61%[activator] | 14%
Cn1c(=O)[nH]c(=O)c2c1ncn2CC(O)c1ccccc1 (centres undefined) | 7% | 14%
CN(CCOC(=O)c1cc2ccccc2o1)C1CN(Cc2cn(Cc3ccccc3F)nn2)S(=O)(=O)C1 (centres undefined) | 5% | 0%
COc1ccc(N(C(=O)c2ccc(Cl)cc2)S(=O)(=O)c2ccc(C)cc2)cc1 | -6% | 106%[activator]
CCC(C)n1c(SCC(=O)N2CCOCC2)nc2c1c(=O)n(C)c(=O)n2C (centres undefined) | 6% | 3%
Cc1cccc(NC(=O)COc2ccc3oc4c(c3c2)CCCC4)c1 | 36%[activator] | 3%
COc1ccccc1CNc1nc2ccc(Cl)cc2n2cnnc12 | 104%[activator] | 11%
CCc1nn2c(-c3ccco3)ccnc2c1-c1ccc(F)cc1 | 23% | -2%
Cc1cc(C(C)(C)C)c(O)c(C(C)(C)C)c1 | 1%[11.5 µM] | 4%
O=C(Nc1ccc(Cl)c(C(F)(F)F)c1)c1ccc2ccccc2c1 | u | u
COc1ccc(NC(=O)c2cc3cc(C)ccc3n2C)cc1 | 0%&4% | -8%&-4%
Cc1ccc(CNC(=O)c2ccc3c(c2)NC(=O)C(CS(=O)(=O)Cc2cccc(C)c2)N3)cc1 (centres undefined) | 23% | 10%
O=C(CSc1c2c(nc3ccc(Cl)cc13)CCCC2)N1CCCCC1 | -8% | 1%
CC(=O)OCc1ccc(C(=O)O)cc1 | 24% | 16%
O=C(COc1ncnc2scc(-c3ccc(F)cc3)c12)Nc1ccc(F)cc1 | -23% | -8%
CCCc1cc(=O)oc2c(C)c(OCC(=O)c3ccc(-c4ccccc4)cc3)ccc12 | 4% | 0%

Bioassay records deposited in PubChem BioAssay by National Center for Advancing Translational Sciences (NCATS).

Some of the compounds tested; rates above refer to the full screens.
